# GIV-Gai inh – inhibitors of GIV peptide binding to Galpha-i3, primary screen, biochemical, fluorescence polarization, FITC-GIV GBA peptide, rat Galphai3. percent of control (FP), % (test concentration not listed). Guanine nucleotide-binding protein G(i) subunit alpha-3 (Rattus norvegicus), P08753. 90 min; hits give low values; scaled: aluminum fluoride 0%, vehicle 100%. 210,000 compounds, 0.42% hits;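 active = replicate mean at 85% of control or lower, very high polarization wells dropped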;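 also: wells of about 15 µL received 100 nL stock; the first replicate is given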
# Target sequence (P08753 whole entry, looked up): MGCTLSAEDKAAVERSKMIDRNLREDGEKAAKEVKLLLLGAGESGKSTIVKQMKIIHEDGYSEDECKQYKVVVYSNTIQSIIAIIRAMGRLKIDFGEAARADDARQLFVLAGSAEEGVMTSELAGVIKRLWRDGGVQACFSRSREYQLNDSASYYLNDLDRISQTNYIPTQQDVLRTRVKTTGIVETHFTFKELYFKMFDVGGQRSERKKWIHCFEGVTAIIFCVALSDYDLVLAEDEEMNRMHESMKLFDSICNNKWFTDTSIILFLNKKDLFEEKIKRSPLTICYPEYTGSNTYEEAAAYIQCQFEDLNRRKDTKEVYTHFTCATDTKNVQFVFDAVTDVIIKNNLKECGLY
# HCMV UL50-53 inh – inhibitors of HCMV UL50-UL53 interaction, biochemical, HTRF; 190,000 compounds, 0.15% hits; inhibition, % (concentration not given with the values); HCMV UL50-UL53 nuclear egress complex (human cytomegalovirus); normalized percent inhibition;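 active = both replicates at 50% or more, plus weaker picks with an unusually low signal ratio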;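 also: stock transfer was 100 nL into about 20 µL; 0% = negative control wells and 100% = wells with untagged competitor protein; inactives centre near -12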
# Sa growth 42C – S. aureus growth inhibition at 42 and 30 °C, primary screen, LtaS inhibitor project, RN4220, two temperatures; OD600, 20 h, 42 °C; hits give low values; AID 720641, 2013; relative growth, % (concentration not given with the values); 170,000 compounds, 0.53% hits;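 active = growth at 42 °C up to 50% and 20 or more points under that at 30 °C, or under 10% at both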;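 also: 300 nL library stock went into each well; scaled to the means of positive and negative controls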
# Sa growth 42C second temp – second read-out of Sa growth 42C, no call of its own (marks repeat the call); relative growth, %; measured here: growth at 30 °C;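 optical density after 20 h as mean of two plates; 100% = untreated growth and lower means inhibition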
# The depositor's hits bear a star; . = no result given; & = joins results of further samples.
SMILES,GIV-Gai inh,HCMV UL50-53 inh,Sa growth 42C,Sa growth 42C second temp
CCn1c(SC)nnc1C1CCCN(C(=O)c2ccccc2-c2ccccc2)C1 (stereo not drawn),100.1,-1.2,100.5,67.3
O=C(CCc1ccc(S(=O)(=O)N2CCOCC2)cc1)N1CCN(Cc2ccccc2)CC1,.,-13.7,91.6,94.9
C=CCn1c2ccccc2c2nnc(SCc3ccccc3C)nc21,.,2.9,103.7,94.3
O=S(=O)(NC(c1ccc(Cl)cc1)c1nnc(-c2ccccc2)o1)c1ccc(F)cc1 (stereo not drawn),110.5,-20.5,.,.
COc1ccc2sc(N(Cc3cccnc3)C(=O)c3ccco3)nc2c1,98.3,.,80.0,27.7
O=S(=O)(c1cccc2nsnc12)N1CCCCC1,102.1,.,85.2,88.0
N#Cc1ccc(OCC(=O)c2ccccc2)cc1,105.0,-5.6,114.9,84.7
O=C1CN(C(=O)COC(=O)C2CCN(S(=O)(=O)c3ccccc3)CC2)c2ccccc2N1,.,-15.9,90.0,95.9
O=C(Nc1cccc(F)c1)C1C2C=CC3(CN(CCCN4CCOCC4)C(=O)C13)O2 (stereo not drawn),96.8,-2.8,97.0,91.6
FC(F)(F)c1ccncc1-c1nnc(C2CCCCC2)o1,105.4,0.3,115.4,90.0
CCOC(=O)CSC1=Nc2ccccc2C2=NC(CCC(=O)NCc3ccccc3)C(=O)N12 (stereo not drawn),101.7,.,99.1,86.8
Cc1csc(=NC(=O)c2ccccc2)n1Cc1ccco1,.,0.9,81.8,95.9
CSCCC(NCc1ccccc1O)C(=O)O (stereo not drawn),103.7,-10.7,117.7,88.3
CCOCCCNC(=O)CCc1nnc2c3cc(-c4ccc(C)c(C)c4)nn3ccn12,107.2,-2.4,.,.
O=C(Nc1ccc(Cl)cc1)Nc1ccc(-c2noc(C3CCC3)n2)cc1,99.8,-15.0,.,.
CC(=O)OC1CCN(CCc2ccccc2)C(C)C1C (stereo not drawn),105.0,-7.8,113.1,90.0
Cn1nc(C(=O)N2CCN(C3CCS(=O)(=O)C3)CC2)c2ccccc2c1=O (stereo not drawn),.,-7.1,102.1,94.3
O=C(COc1cccc2ccccc12)Oc1ccc(-c2nnco2)cc1,.,-8.9,98.7,99.1
O=C(O)c1cccc(NCc2ccncc2)c1,.,6.8,105.4,97.6
Cc1scc(CN2CCOCC2)c1C,96.8,.,80.1,86.4
O=C(Nc1ccccc1F)Nc1ccccc1N1CCCCC1,106.5,13.5,104.3,97.5
CCC1CCCCN1C(=O)COc1cccc2c1OC(C)(C)C2 (stereo not drawn),.,3.1,92.9,93.9
CCOc1ccc2c3c(c(=O)oc2c1OCC)CCC3,.,-27.6,83.6,87.6
NCCC(O)(P(=O)(O)O)P(=O)(O)O,97.8&107.9,-24.6,91.7,81.6
CN1CCn2c(nc3cccc(Cl)c32)C1,100.1,-13.3,.,.
CCN(CC)CCN1C(=O)C2C3c4ccccc4C(c4ccccc43)C2C1=O (stereo not drawn),106.0,-17.9,89.5,100.5
CC1=CC(=O)C(C(=O)/C=C/c2ccccc2)C(=O)O1 (stereo not drawn),.,-12.9,59.6,49.8
CN(C)S(=O)(=O)c1ccc(NC(=O)C2CCC2)cc1,106.8,-20.3,111.2,98.2
CCCCNC(=O)Nc1nc(-c2ccc(C)cc2)c(-c2ccc(C)cc2)o1,.,17.8,112.5,96.4
CN(C)S(=O)(=O)c1ccc(C(=O)Nc2[nH]nc(N3CCCC3)c2C#N)cc1,.,2.9,98.2,97.1
CCOc1ccc2nc(SC3CC(=O)N(c4cccc(OC)c4)C3=O)sc2c1 (stereo not drawn),102.1,-18.1,.,.
CC(C)c1nc(NCc2ccccc2)c(C#N)c2c1CCCC2,99.9,-8.4,117.4,97.8
Cc1ccc(NC(=O)c2nc(S(=O)(=O)Cc3ccc(F)cc3)ncc2Cl)cc1C,105.8,26.2,101.3,82.1
CCCc1cc(=O)n2[nH]c(NC(=O)C(c3ccccc3)c3ccccc3)nc2n1,102.9,-9.1,102.5,87.0
Cc1ccc(-c2csc3nc[nH]c(=O)c23)cc1C,.,-6.2,145.2,89.3
CCCOc1ccc(/C=C/C(=O)Nc2ccc(S(=O)(=O)Nc3ncccn3)cc2)cc1,98.7,.,109.2,77.1
C/C(=N\NC(=O)Cc1csc(N2CCOCC2)n1)c1ccccc1,.,-33.3,110.4,94.2
Cc1cc(C)n2nc(SC(C)C(=O)NC(=O)NC3CCCCC3)nc2n1 (stereo not drawn),.,4.5,88.6,91.4
CC(=O)Nc1ccc(SCC(=O)c2cc(C)n(C)c2C)cc1,.,-17.0,99.4,95.1
O=C(c1cccs1)N1N=C(c2ccccc2)CC1c1cccs1 (stereo not drawn),102.8,-12.9,88.7,91.0
O=C(Nc1nc2ccccc2s1)c1ccccc1,.,-15.3,110.5,75.5
COC(=O)c1cc(S(=O)(=O)NCc2cccs2)oc1C,94.1,1.3,108.7,75.5
CCOC(=O)COn1c(=O)c(-c2ccc(Cl)cc2)[n+]([O-])c2ccccc21,102.0,-39.8,119.0,92.4
O=C(Nc1cccc2c1CCCC2)C1CC2CSCN2C12C(=O)Nc1ccccc12 (stereo not drawn),101.5,-37.4,.,.
Cc1cc(C)c2oc(-c3ccc(Cl)c(NC(=O)c4cccs4)c3)nc2c1,108.2,-7.7,89.4,91.9
Cc1ccc(NC(=O)Cn2c(-c3nonc3N)nc3ccccc32)c(Br)c1,105.8,-30.9,90.8,76.7
CCN(CC)C(=O)Cn1c(=O)n(-c2ccc(C)c(C)c2)c(=O)c2c(C)c(C(=O)N(CC)CC)sc21,102.2,.,91.5,89.9
CCCn1c(SC)nc2ccccc2c1=O,.,18.1,85.7,92.9
CCN(c1nc2nc(C)c(Cl)c(C)n2n1)S(=O)(=O)c1ccccc1,103.4,-10.5,.,.
ClC1=NN(c2ccccc2)CC1,96.6,-6.4,91.4,101.7
COC(=O)c1cc(Cl)c(NC(=S)NC(=O)C(C)(C)C)cc1OC,107.5,.,65.5,57.7
CSCC[C@@H](NC(=O)COc1cc(O)c2c(=O)cc(-c3ccccc3)oc2c1)C(=O)O,94.2,-18.9,.,.
Cc1onc(C(N)=O)c1C(=O)Nc1cccc(C(F)(F)F)c1,105.7,3.3,.,.
Cc1ccc(CC(C#N)Sc2n[nH]c(-c3ccccc3F)n2)cc1 (stereo not drawn),.,-6.6,81.8,71.7
CCOc1ccc(-c2ccc(=O)n(CC(N)=O)n2)cc1,102.6,-64.2,120.4,104.7
O=C(O)CCOc1ccc2c(c1)OCCO2,103.0,-7.6,104.2,82.9
Cc1ccc(CNc2nc3ccccc3n3c(C)nnc23)cc1,100.5,-14.6,94.5,83.5
O=C(O)c1cc2nc(-c3ccccc3)cc(-c3ccccc3)n2n1,96.0,-108.3,82.3,46.9
CCN(CC)CCSc1nnc(Nc2ccccc2)n1-c1ccccc1,110.6,6.4,106.6,101.2
COC(=O)c1c(NC(=O)C2CC(=O)NN2C)sc2c1CCC2 (stereo not drawn),109.2,-35.8,104.0,81.7

# Further records follow.
SMILES,GIV-Gai inh,HCMV UL50-53 inh,Sa growth 42C,Sa growth 42C second temp
COC(=O)Cn1c(SC)nc2ccccc21,102.4,-5.8,88.7,82.0
Cc1c(Cl)cccc1NC(=O)N1CCC(CN2CCCC2)CC1,110.4,.,111.5,102.3
O=c1oc2ccccc2cc1-c1nnc(-c2ccccc2)o1,96.0,-21.1,.,.
COc1cc2c(cc1OC)CN(S(=O)(=O)c1cc(N3C(=O)CCS3(=O)=O)ccc1C)CC2,102.0,-7.0,.,.
COC(=O)c1ccc(COc2ccc3c(C)cc(=O)oc3c2)o1,106.2,2.3,101.9,99.4
O=C1C(Nc2cccc(O)c2)=C(n2nnc3ccccc32)C(=O)c2ccccc21,96.0,-54.5,0.6*,0.3*
O=C(CCC(=O)c1ccccc1)c1ccccc1,101.2,-12.7,126.1,83.3
CCc1ccc(NC(=O)CC2C(=O)NCCN2C(=O)c2ccccc2OC)cc1 (stereo not drawn),108.2,11.6,.,.
Cc1ccc(S(=O)(=O)c2cc3ccccc3oc2=O)cc1,98.1,.,90.3,89.2
O=C(Nc1ccc2nn(-c3ccccc3)nc2c1)c1ccccc1,107.9,13.3,87.8,96.5
Cn1c(Sc2nc3ccccc3n2C)nc2ccccc21,104.8,-0.5,113.4,81.4
CC(C)c1cc(NNC(N)=O)cc(C(C)C)c1O,103.7,-130.3,83.2,77.5
CC1(C)OC(=O)N(c2ccccc2)C12C=Cc1cc3ccccc3cc1O2 (stereo not drawn),.,-7.7,125.8,86.6
O=S(=O)(c1ccc(-c2csc(=Nc3cccc(C(F)(F)F)c3)n2CCO)cc1)N1CCCC1,.,-11.2,91.9,85.0
CN(C)C(=O)CN1CCN(c2cc(C(=O)O)c3cc(NC(=O)C4CC4)ccc3n2)CC1,109.0,-25.5,.,.
CN(Cc1cc2ccccc2[nH]c1=O)C(=O)C1CCCCC1,100.3,-34.0,80.5,90.2
COc1ccccc1N1C(=O)NC(=O)/C(=C/c2cn(C(C)=O)c3ccccc23)C1=O,118.1,-16.4,.,.
CC(C)CN(CC(C)C)C(=O)Nc1ccc(F)cc1F,96.1,-15.7,108.8,102.9
N#Cc1nn(-c2ccccc2)c(=O)n(Cc2ccc(Cl)cc2Cl)c1=O,100.1,-47.5,97.0,84.6
COC(=O)C1CCCN(C(=O)C2CCCN2S(=O)(=O)c2cccc3nsnc23)C1 (stereo not drawn),.,-71.9,84.7,91.3
Cc1c(-n2c(=S)[nH]c3ccccc3c2=O)c(=O)n(-c2ccccc2)n1C,99.7,.,114.7,89.6
Cc1ccc(/C=C2\CN(Cc3ccccc3)C/C(=C\c3ccc(C)o3)C2=O)o1,.,-6.7,93.4,78.0
CC(CCc1ccccc1)NC(=O)CSc1cc(=O)n(C)c2ccccc12 (stereo not drawn),101.1,.,95.6,82.4
Cc1cc(NCCCN2CCCC2=O)n2c(nc3ccccc32)c1C#N,131.2,-28.7,102.0,96.3
COc1cc(C2CC(=O)Nc3c2c(=O)[nH]c2ncnn32)ccc1O (stereo not drawn),97.4,-13.2,99.8,91.4
COc1ccc(-c2nc3scc(CCNC(=O)c4ccccc4)n3n2)cc1,105.5,-3.6,120.9,101.8
CNC(=O)Cn1c(=O)n(C)c2ccccc21,102.7,-7.6,105.1,87.7
COc1ccc2nc(N(Cc3cccnc3)C(=O)CCc3ccccc3)sc2c1,99.0,.,93.7,59.0

# Molecules from the list above containing an aryl thioether with sulfur outside any ring (eleven):
SMILES,GIV-Gai inh,HCMV UL50-53 inh,Sa growth 42C,Sa growth 42C second temp
CCn1c(SC)nnc1C1CCCN(C(=O)c2ccccc2-c2ccccc2)C1 (stereo not drawn),100.1,-1.2,100.5,67.3
C=CCn1c2ccccc2c2nnc(SCc3ccccc3C)nc21,.,2.9,103.7,94.3
CCOc1ccc2nc(SC3CC(=O)N(c4cccc(OC)c4)C3=O)sc2c1 (stereo not drawn),102.1,-18.1,.,.
Cc1cc(C)n2nc(SC(C)C(=O)NC(=O)NC3CCCCC3)nc2n1 (stereo not drawn),.,4.5,88.6,91.4
CC(=O)Nc1ccc(SCC(=O)c2cc(C)n(C)c2C)cc1,.,-17.0,99.4,95.1
CCCn1c(SC)nc2ccccc2c1=O,.,18.1,85.7,92.9
Cc1ccc(CC(C#N)Sc2n[nH]c(-c3ccccc3F)n2)cc1 (stereo not drawn),.,-6.6,81.8,71.7
CCN(CC)CCSc1nnc(Nc2ccccc2)n1-c1ccccc1,110.6,6.4,106.6,101.2
COC(=O)Cn1c(SC)nc2ccccc21,102.4,-5.8,88.7,82.0
Cn1c(Sc2nc3ccccc3n2C)nc2ccccc21,104.8,-0.5,113.4,81.4
CC(CCc1ccccc1)NC(=O)CSc1cc(=O)n(C)c2ccccc12 (stereo not drawn),101.1,.,95.6,82.4

# Screening results deposited in PubChem BioAssay by ICCB-Longwood Screening Facility, Harvard Medical School.

# An unsorted share of the library; 0.85% or so of the library scored in one or more.
